VDR inh – inhibitors of human vitamin D receptor; VDR-SRC2-3 peptide fluorescence polarization, 2 h; AID 504847; 0.93% of 400,000 active; P11473; Potency, µM, for the others: max response, negative = inhibition, usual class: inhibitors; active = well fitted inhibition curve with a large enough effect; inconclusive = small, poorly fitted or top-dose-only effect, or another doubt; inactive = no such curve, though single readings can be large or run the other way; note: series mostly up to about 120 µM
Target sequence (P11473 whole entry, looked up): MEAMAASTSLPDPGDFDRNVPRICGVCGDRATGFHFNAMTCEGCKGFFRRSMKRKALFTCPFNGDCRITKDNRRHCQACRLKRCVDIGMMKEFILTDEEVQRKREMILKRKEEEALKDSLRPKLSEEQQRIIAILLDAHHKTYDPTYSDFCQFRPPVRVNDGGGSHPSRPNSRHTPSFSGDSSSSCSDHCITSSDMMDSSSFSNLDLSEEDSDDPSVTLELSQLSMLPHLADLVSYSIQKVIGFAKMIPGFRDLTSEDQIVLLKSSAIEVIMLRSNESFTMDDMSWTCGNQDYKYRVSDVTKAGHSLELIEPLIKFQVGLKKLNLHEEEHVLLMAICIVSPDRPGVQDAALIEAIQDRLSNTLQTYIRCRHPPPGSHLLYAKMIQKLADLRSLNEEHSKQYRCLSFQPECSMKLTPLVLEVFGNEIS
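Fluorescence polarization assay measuring small-molecule disruption of VDR binding to the coregulator peptide SRC2-3. Compounds were pin-transferred (23 nl) into the reagent mix and incubated 2 h at room temperature before reading.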
* marks the source's active call; other numbers are inactive results; ? = inconclusive; & = joins results of further samples. % is set by controls: 0 for no effect and ±100 for the full control effect; potency is the fitted concentration of half-maximal effect.

SMILES | VDR inh
COc1ccc(CNC(=O)C(C)NS(=O)(=O)c2ccc(C)cc2)cc1 (stereo not drawn) | 2.5%
C=CS(=O)(=O)c1ccc(Oc2ccc(S(=O)(=O)C=C)cc2)cc1 | 44.7µM*
CCNC(=S)N1CCc2cc(OC)c(OC)cc2C1COc1ccc(OC)cc1 (stereo not drawn) | 3.7%
C=CCn1c(=O)c2ccccc2n2c(SCC(=O)NC)nnc12 | 3.1%
COc1ccc(S(=O)(=O)N2CCOC2CNC(=O)C(=O)NCCCN2CCOCC2)cc1 (stereo not drawn) | -3.2%
CC(=O)N1CCc2c(sc3c2c(=O)n(-c2cccc(Cl)c2)c(=O)n3Cc2ccc(F)cc2Cl)C1 | 0.2%
COc1ccc(-c2cc(CNS(=O)(=O)c3cc(OC)ccc3OC)on2)cc1 | 7.4%
CC(C)(C)c1cc(NS(=O)(=O)c2cccs2)no1 | -1.4%
Cc1ccc(NC(=O)Cn2c(=O)n(Cc3nc(C)no3)c(=O)c3cc4c(cc32)OCO4)cc1 | 20.0%
COc1ccc(/C=N/n2c(N)nc3ccccc32)cc1OC | -3.8%
CS(=O)(=O)c1ccc(Cl)c(NC(=O)Cc2ccsc2)c1 | 0.3%
O=S(=O)(/N=C(\Sc1ccccc1)c1ccccc1)c1ccc(Cl)cc1 | 79.4µM*
Cn1cccc1CNCC(O)c1ccccc1 (stereo not drawn) | -2.1%
COCCC(=O)N1CCC(Oc2ccc(C(=O)N3C[C@@H]4CCC[C@H]3C4)cc2)CC1 | -3.8%
O=C(COC(=O)/C=C/c1cccc(C(F)(F)F)c1)NCc1ccccc1 | -26.7%
O=C(Cc1ccccc1F)OCN1C(=O)c2ccccc2C1=O | 10.4%
O=C(O)c1nccnc1C(=O)NCc1csc2ccc(Cl)cc12 | -9.9%
CC(=O)c1ccc(NC(=O)N[C@@H](CC(C)C)C(=O)O)cc1 | -2.8%
CCCS(=O)(=O)c1ccc(COC(=O)c2ccc(NC(C)=O)cc2)cc1 | -10.7%
COc1ccc(C)cc1NC(=O)CCCN1C(=O)NC(C)(C)C1=O | 8.6%
O=C1CC(/C=C/c2ccccc2)=Nc2ccccc2N1 | -9.2%
O=C(/C=C/c1cccs1)N1CCN(c2ccc(F)cc2)CC1 | 9.9%
O=C(COc1ccccc1-c1ccccc1)N/N=C/c1ccncc1 | -7.8%
Cn1cccc1CNCc1ccc(F)cc1 | -14.6%
CC(C)n1c(=O)c2oc3ccccc3c2n(Cc2ccccc2F)c1=O | 0.9%
Cc1ccc(OCc2cc(C(=O)N3CCCC(O)C3)no2)cn1 (stereo not drawn) | -6.5%
c1ccc2oc(C3=NNC(=NC4CC4)SC3)cc2c1 | -17.4%
N#Cc1cnn(-c2cccc(Cl)c2)c1N | -11.2%
Cc1ccccc1OCC(=O)OCC(=O)Nc1ncc(Cl)c(C)c1Cl | 22.6%
Cc1cccc(-n2c(Cc3cc(=O)[nH]c(=O)[nH]3)nnc2SCC(=O)NCc2ccco2)c1 | -5.0%
Cc1ccc(/C=C/C(=O)O)cc1S(=O)(=O)N(CCO)CCO | 15.2%
COC(=O)c1sc2ccccc2c1-n1cccc1C(=O)C(=O)Nc1ccccc1 | 15.1%
Cc1cc(NC(=O)c2ccccc2C)no1 | -8.2%
COc1ccc(S(=O)(=O)Nc2ccc(-c3ccc4nncn4n3)cc2)c(OC)c1 | ?
COc1ccc2c(c1)OC1(O)COc3cc(OC)c(OC)cc3C1=C2 (stereo not drawn) | 5.8%
CN1CCN(C(=O)CCN2C(=O)/C(=C\c3ccccc3F)SC2=S)CC1 | 12.0%
Clc1ccc2c(c1)-c1[nH]ncc1CS2 | -8.6%
O=c1c(O)c(-c2ccccc2)oc2ccccc12 | -12.1%&21.7%
C=CCn1c(=S)[nH]c2nc3c(cc2c1=O)CCCC3 | -0.4%
COc1ccc(C)cc1NS(=O)(=O)c1ccc2oc(=O)c3ncn(C)c3c2c1 | 7.5%
O=C(c1cc2ccccc2oc1=O)N1CCN(c2ccccn2)CC1 | 10.3%
O=C(NCc1ccc2c(c1)OCO2)c1ccc(CS(=O)Cc2cccc(Cl)c2)o1 (stereo not drawn) | -8.5%
CCN(CC(=O)Nc1c(F)cccc1F)C(=O)c1ccc(S(=O)(=O)N2CCCCC2)cc1 | -15.0%
CCOc1ccc(CNC2CCCCCCC2)cc1OC | -10.4%
CCc1ccc(C(=O)c2cn(CC(=O)NCCc3ccc(OC)c(OC)c3)c3nc(C)ccc3c2=O)cc1 | -2.5%
O=C(NCCSc1c[nH]c2ccccc12)c1ccc(Br)o1 | 5.6%
COc1ccc(-c2c(C#N)c(SCC(=O)Nc3ccc(C)c(C)c3)nc(C)c2C(=O)Nc2ccc(Cl)cc2)cc1 | -15.3%
Cc1ccc(-c2csc3nc4ccc(C(=O)NCCO)cc4c(=O)n23)cc1 | -4.4%
CC(=O)Nc1cccc(NC(=O)CCn2c(=O)sc3ccccc32)c1 | 0.7%
Cc1ccc(S(=O)(=O)N2CCC(C(=O)N3CCC(C(=O)NCC4CCCO4)CC3)CC2)cc1 (stereo not drawn) | 5.3%
OC[C@@H]1[C@@H](c2ccccc2)C(c2ccccc2)=NN1c1ccccc1 | ?
CCc1ccc(CCC(=O)Nc2nc(CC(C)=O)ns2)o1 | -2.6%
Cc1ccc(-c2nnc(COC(=O)c3cc(=O)[nH]c4ccccc34)o2)cc1 | -2.1%
CCc1cc(C(=O)N(C)CC(=O)Nc2c(Cl)cccc2Cl)sc1C | 0.7%
COC(=O)[C@H](CCSC)NC(=O)Cn1cnc2c(SC)nc(N)nc21 | ?
CC1(C)C=Cc2c(c3c(c4c(=O)c(-c5ccc(O)cc5)coc24)OC(C)(C)CC3)O1 | -5.1%
O=C(C1CCCN(CCCc2ccccc2)C1)N1CCCCCC1 (stereo not drawn) | -13.3%
CCOCCCNC(=O)C(NC(=O)c1ccc(NC(C)=O)cc1)c1ccc(C)cc1 (stereo not drawn) | 11.3%
NC(=O)c1ccc(NC(=O)COC(=O)C2CC3C=CC2C3)cc1 (stereo not drawn) | -3.1%
COc1ccc(CNC(=O)C(C)Cc2ccccc2)cc1O (stereo not drawn) | 14.2%

Brought forward from above: 7 compounds, followed by the next part.
SMILES | VDR inh
CCc1cc(C(=O)N(C)CC(=O)Nc2c(Cl)cccc2Cl)sc1C | 0.7%
COC(=O)[C@H](CCSC)NC(=O)Cn1cnc2c(SC)nc(N)nc21 | ?
CC1(C)C=Cc2c(c3c(c4c(=O)c(-c5ccc(O)cc5)coc24)OC(C)(C)CC3)O1 | -5.1%
O=C(C1CCCN(CCCc2ccccc2)C1)N1CCCCCC1 (stereo not drawn) | -13.3%
CCOCCCNC(=O)C(NC(=O)c1ccc(NC(C)=O)cc1)c1ccc(C)cc1 (stereo not drawn) | 11.3%
NC(=O)c1ccc(NC(=O)COC(=O)C2CC3C=CC2C3)cc1 (stereo not drawn) | -3.1%
COc1ccc(CNC(=O)C(C)Cc2ccccc2)cc1O (stereo not drawn) | 14.2%
Cc1ccccc1Nc1c(-c2ccc(N3CCOCC3)cc2)nc2ncccn12 | ?
c1ccc(Cn2nnc3c(N4CCN(Cc5ccc6c(c5)OCO6)CC4)ncnc32)cc1 | -5.0%
O=C(NC1CCN(Cc2ccccc2)CC1)c1ccccc1Cl | -11.7%
Cc1cc(C)nc(NS(=O)(=O)c2ccc(N=Cc3c(C)[nH]n(-c4ccccc4)c3=O)cc2)n1 | ?
CN(Cc1ccccc1)C(=O)c1cc(-c2ccc(Br)cc2)on1 | 2.7%
Cc1ccc(N(CC(=O)NCc2ccncc2)S(C)(=O)=O)cc1 | 13.7%
CC(=O)Nc1ccc(NC(=O)C(C)OC(=O)c2ccc3[nH]c(C)c(C)c3c2)cc1 (stereo not drawn) | 10.8%
O=C(CCCOc1ccccc1)Nc1nnc(C2CCCO2)s1 (stereo not drawn) | -14.4%
COc1ccc(-c2cc(C)no2)cc1S(=O)(=O)NCCCN1CCN(c2ccccc2)CC1 | -11.3%
COc1ccc(NC(=O)Nc2cccc3c2O[C@H](CN(C)S(=O)(=O)c2ccccc2)[C@@H](C)CN([C@H](C)CO)C3=O)cc1 | -5.7%
CN(Cc1ccccc1)c1ccc(-c2nc(-c3cccnc3)no2)cc1[N+](=O)[O-] | -15.2%
Cn1c(=O)c2ncn(CC(=O)NCCOCc3ccccc3Cl)c2n(C)c1=O | ?
CCOC(=O)c1c(C)[nH]c(C)c1S(=O)(=O)N(C)CC(=O)Nc1cccc(F)c1 | -20.5%
COc1ccccc1N/C(N)=N/c1nc(C(F)(F)F)cc(=O)[nH]1 | 3.8%
Cc1cc(-n2c(C)cc(C(=O)CSc3nncn3C)c2C)no1 | -26.8%
CCO[C@@H]1OC(C(=O)Nc2ccccc2)=C[C@H](c2ccccc2)[C@H]1CCCO | -7.4%
CCOC(=O)/C=C1\SCC(=O)N1CC(=O)NCc1cccc(Cl)c1 | -2.5%
O=C(Oc1ccccc1N1CCOCC1)c1ccccc1 | 8.3%
CC(=O)Nc1ccc(C(=O)NC2CCSc3ccccc32)cc1 (stereo not drawn) | 0.5%
Cc1c(C(=O)OCC(=O)N2CCCCC2C)oc2ccccc12 (stereo not drawn) | -0.4%
O=C(c1ccc(Cl)s1)N(Cc1nnc(-c2ccccc2Cl)o1)C1CC1 | -1.0%
O=C(Nc1ccccc1F)c1cnccn1 | -8.2%
CN(C(=O)CSc1nnc(-c2ccccc2F)n1N)C1CCCCC1 | -11.2%
CC1CC(=O)Nc2ccccc2N1S(=O)(=O)c1cccs1 (stereo not drawn) | -3.3%
C/C(CC(=O)NCc1ccc(Cl)cc1)=N\NC(=O)c1ccccc1F | 4.7%
NC(=O)CCN1CCN(Cc2cn[nH]c2-c2cccc3ccccc23)CC1 | 22.9%
CC(=O)Nc1nnc(SCC(=O)N2CCCc3ccccc32)s1 | -21.3%
CCc1ccccc1NC(=O)Nc1nnc(N2CCCC2)s1 | 2.1%
Cn1c(=O)c2[nH]c(CCCCCCCc3nc4ccccc4[nH]3)nc2n(C)c1=O | -14.5%
COc1ccc(-c2cc(C(F)(F)F)n3nc(C)c(-c4ccccc4)c3n2)cc1OC | 3.1%

(continued)
Compound	VDR inh
COc1cc(/C(C)=N/NC(=O)c2nnn(-c3nonc3N)c2-c2cccs2)ccc1O	-9.3%
CCCn1c(N)c(N(CCOC)C(=O)c2ccc(-c3ccc(Cl)cc3)o2)c(=O)[nH]c1=O	-7.6%
CCCCOc1c(Cl)cc(CNC(C)(C)CO)cc1OCC	-11.3%
CCCCn1nc2cc(C(=O)NC3CCCc4ccccc43)ccc2c1OCC (stereo not drawn)	-11.7%
Cc1nn(-c2ccc(N3CCCCC3)nn2)c(C)c1CCC(=O)Nc1cc(F)ccc1F	-8.8%
CCc1cc2c(=O)c(-c3nc4ccccc4n3C)c(C)oc2c(CN2CCN(CCO)CC2)c1O	6.2%
CCOC(=O)c1cc2c(=O)n3ccccc3nc2n(Cc2ccco2)c1=NC(=O)c1ccc(Br)cc1	89.1µM*
O=C(NCc1ccc(F)cc1)C(c1ccccc1)N(C(=O)c1csnn1)C1CC1 (stereo not drawn)	-0.6%
NCc1ccc(S(N)(=O)=O)cc1	-22.4%&-2.4%&22.8%&12.5%
Cc1nc2ccccc2c(=O)n1NC(=O)c1cccc([N+](=O)[O-])c1	-19.8%
CN(C)c1ccc(C2N(C)C(=O)c3ccccc3N2C)cc1 (stereo not drawn)	26.9%
O=C(NCC1COc2ccccc2O1)C1(c2ccccc2)CCCC1 (stereo not drawn)	-20.0%
CC(C)(C)C1C/C(=C/c2ccccn2)C(=O)/C(=C/c2ccccn2)C1 (stereo not drawn)	?
COCCN(C(=O)c1cccc(-n2cnnn2)c1)c1c(N)n(CC(C)C)c(=O)[nH]c1=O	-7.3%
Cc1ccc(S(=O)(=O)NCC(=O)NCC(=O)N(C)Cc2ccc3ccccc3c2)cc1C	?
Cc1cc(C)cc(NC(=S)NCCc2c[nH]c3ccccc23)c1	-12.1%
N#C/C(=C/c1ccc(N2CCOCC2)o1)c1ccc(Br)cc1	35.5µM*
C=CCSc1nnc2n(CCc3ccccc3)c(=O)c3c4c(sc3n12)COC(C)(C)C4	-1.7%
CCCCOc1ccc(C(=O)NN2CCOCC2)cc1	4.5%
CN1CC[C@@]2(CCCN(C(=O)c3cccc(F)c3)C2)C1	-1.7%
CC(=O)N1CC(C)Sc2ccc(S(=O)(=O)NCc3ccc(F)cc3)cc21 (stereo not drawn)	8.0%
N#Cc1ccc(CN2CCC3(CC2)CCN(C(=O)c2cnccn2)CC3)cc1	-15.8%
O=C(O)CCC(=O)OCCCc1cc2ccccc2c(=O)o1	11.1%
O=C(CCNC(=O)C1CCN(S(=O)(=O)c2ccc(F)cc2)CC1)Nc1ccccc1	-5.7%
CN(C)S(=O)(=O)c1ccc2c(c1)nc(CCC(=O)Nc1ccc(N3CCOCC3)cc1)n2C	-8.8%
Cc1cc(C(=O)OCC(=O)c2cccc([N+](=O)[O-])c2)c2ccccc2n1	-1.3%
O=C(Cn1nc(-c2ccccc2)ccc1=O)NCCN1CCN(c2cccc(Cl)c2)CC1	12.9%
Cc1nc(Nc2nc3ccccc3o2)nc(C)c1C(=O)Nc1ccc(F)cc1	2.1%
NC(=O)C1(N2CCCCC2)CCN(C(=O)CSc2nc3ccccc3s2)CC1	-2.1%
CCCCCNC(=O)CC1Nc2c3ccccc3nc(=S)n2C1=O (stereo not drawn)	8.4%
CCN1CCc2c(sc(-n3cccc3)c2C(C)NC(=O)Nc2ccccc2C)C1 (stereo not drawn)	15.8%
COc1cc(C=O)ccc1Oc1nc(Nc2ccc(F)cc2F)nc(N2CCOCC2)n1	-23.9%
O=S1(=O)CCN(OCc2ccc(F)cc2Cl)CC1	9.8%
CC(=O)NC(Cc1ccccc1)C(=O)NC1CCN(C(=O)c2ccc([N+](=O)[O-])cc2)CC1 (stereo not drawn)	-18.2%
O=C(NC(=S)Nc1cccc2cc(O)ccc12)c1ccccc1Br	-6.4%
COc1ccccc1-c1noc(-c2ccccc2)n1	-13.2%
Cc1occc1C(=O)N/N=C/c1ccc[nH]1	-4.6%

Compound activity (PubChem)

Only part of the results is shown. The share of hits here may be higher or lower than overall.
